Screening data as filed in PubChem.
Beta2AR agonist: beta2AR agonists driving receptor internalization, primary screen, cell-based, FAP fluorogen, flow cytometry; Beta-2 adrenergic receptor (Homo sapiens), P07550; Am2.2-beta2AR cells; reference of the scale not given here; response, % (concentration not given with the values); 340,000 tested, 0.43% active;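 active = response above a set limit, near 3 SD of response in nonfluorescent compounds, cut at about 42% in these data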;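 note: stock transfer was 100 nL into about 11 µL; a reference agonist was the positive control; negative values mostly stem from fluorescent compounds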
Beta cell apopt: inhibitors of cytokine-induced beta cell apoptosis, primary screen, luminescence; INS-1E cytokine-induced death, ATP luminescence, 48 h; percent of positive-control rescue, neutral wells zero; protection from apoptosis, % (no concentration beside the values); 300,000 tested, 0.8% active; AID 435005, 2010;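 active = all replicates at 75% or more, or half of them and the mean; inconclusive = half reach 75% but not the mean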;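 note: 0% = cytokine-treated negative control wells and 100% = positive control rescue; higher means more ATP so stronger rescue from cytokine killing; wells of about 40 µL received 100 nL stock; the first replicate is given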
Calb FLC: C. albicans growth inhibition with fluconazole, primary screen, CaCi-2 strain, Alamar Blue fluorescence | C. albicans CaCi-2 (fluconazole-resistant clinical isolate) + fluconazole, 48 h | growth inhibition, % (concentration not given with the values) | 300,000 tested, 0.57% active | AID 1979, 2009;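 active = most replicates above 75%; inconclusive = exactly half above 75%; inactive = most below 75%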;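 note: all wells also contain fluconazole at 8 µg/ml as a sub-toxic cotreatment; 0% = median of DMSO wells and 100% = median of geldanamycin control wells; wells of about 8 µL received 7.5 nL stock; the first replicate is given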
T cruzi repl: inhibitors of intracellular T. cruzi growth, primary screen, luminescence, NIH3T3 host cells | 300,000 tested, 1.4% active | AID 1885, 2009 | inhibition, % (concentration not given with the values) | T. cruzi beta-gal in NIH3T3, 90 h;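 active = mean inhibition across valid replicates above about 55%, limit read from the data; inconclusive = mean below that limit but half or more replicates reach it; inactive = mean below it, under half of replicates reach it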;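 note: signal also drops with host cell toxicity which is not excluded here; 0% = plate median of DMSO wells and 100% = zero luminescence signal; higher percent means less beta-gal luminescence so fewer parasites; stock transfer was 50 nL into about 50 µL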
ALR inh: inhibitors of human ALR sulfhydryl oxidase, primary screen, biochemical, H2O2 detection, HRP-luminol luminescence, single point. FAD-linked sulfhydryl oxidase ALR (Homo sapiens), P55789. purified ALR, DTT oxidation. inhibition, % (no concentration beside the values). 290,000 tested, 3.8% active. AID 485317, 2010;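 active = mean and each replicate at 75% or more; inconclusive = only one of the two met; inactive = neither met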;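 note: stock transfer was 7.5 nL into about 7.5 µL; 0% = neutral wells and 100% = wells with inactivated enzyme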
Ecoli rRNA inh: reduced GFP signal of wild-type E. coli, primary screen, bacterial rRNA inhibitor project, GFP/RFP fluorescence, OD600, single point. AID 720706, 2013. E. coli WT GFP vs humanized-ribosome RFP mutants, 24 h; stronger effect = lower value; DMSO median 0, no signal -100. 350,000 tested, 1.6% active. GFP signal change (wild-type ribosome), % (concentration not given with the values);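 active = significant combined selectivity score with lowered wild-type GFP, culture density cut under 30%, mutant RFP and density less affected; inactive = any of these conditions unmet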; note: one replicate is shown; some compounds called inactive have numbers as strong as hits
LANA-H2B inh: blockers of LANA interaction with H2A/H2B – biochemical, FP readout, HTS, primary screen | cell-free LANA-H2A/H2B peptide, fluorescence polarization | inhibition, % (concentration not given with the values) | Protein LANA1 (Human herpesvirus 8 type P (isolate GK18)), Q9QR71 | 320,000 tested, 0.6% active | AID 2629, 2010; in the data active = inhibition mostly above about 10%, no sharp cut-off; inactive = mostly below about 6.7%;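 note: stock transfer was 7.5 nL into about 10 µL; 0% = median of vehicle wells and 100% = median of positive control wells; one replicate is shown; the record names a cut of 25% in any replicate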
Target sequence (Q9QR71 whole entry, looked up): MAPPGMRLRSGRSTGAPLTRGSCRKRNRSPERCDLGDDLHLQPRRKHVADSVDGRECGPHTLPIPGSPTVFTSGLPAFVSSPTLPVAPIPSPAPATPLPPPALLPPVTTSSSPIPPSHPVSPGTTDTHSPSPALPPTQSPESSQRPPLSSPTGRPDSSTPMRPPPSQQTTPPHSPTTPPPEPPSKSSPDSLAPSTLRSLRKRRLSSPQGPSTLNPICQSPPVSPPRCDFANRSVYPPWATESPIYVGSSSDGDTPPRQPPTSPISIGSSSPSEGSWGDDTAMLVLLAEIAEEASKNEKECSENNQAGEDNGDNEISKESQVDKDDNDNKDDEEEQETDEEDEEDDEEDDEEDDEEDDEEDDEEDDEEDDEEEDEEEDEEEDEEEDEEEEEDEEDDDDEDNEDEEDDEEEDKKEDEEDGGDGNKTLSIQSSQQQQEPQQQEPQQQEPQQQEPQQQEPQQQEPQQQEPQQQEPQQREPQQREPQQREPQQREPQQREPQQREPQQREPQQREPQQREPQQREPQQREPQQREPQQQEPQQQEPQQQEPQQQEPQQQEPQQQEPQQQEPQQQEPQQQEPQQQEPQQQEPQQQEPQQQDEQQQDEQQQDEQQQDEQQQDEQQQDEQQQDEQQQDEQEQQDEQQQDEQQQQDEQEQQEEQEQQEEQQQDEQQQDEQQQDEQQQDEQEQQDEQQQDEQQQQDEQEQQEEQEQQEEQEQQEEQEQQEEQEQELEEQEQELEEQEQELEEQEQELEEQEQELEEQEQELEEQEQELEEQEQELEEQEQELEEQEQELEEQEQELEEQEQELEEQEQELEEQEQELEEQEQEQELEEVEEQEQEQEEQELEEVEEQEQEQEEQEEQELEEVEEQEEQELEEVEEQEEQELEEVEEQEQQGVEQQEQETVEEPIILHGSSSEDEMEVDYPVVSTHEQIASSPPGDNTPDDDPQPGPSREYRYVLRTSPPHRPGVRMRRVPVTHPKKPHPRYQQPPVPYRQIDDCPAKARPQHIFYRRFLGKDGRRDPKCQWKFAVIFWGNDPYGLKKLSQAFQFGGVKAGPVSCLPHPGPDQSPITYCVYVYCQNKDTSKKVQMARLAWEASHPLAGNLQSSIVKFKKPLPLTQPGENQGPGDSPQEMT
A1 inh: caspase 3/7 activation in MEF A1-2A-BIM cells, primary screen, A1 inhibitor project, cell-based, luminescence, HTS; Caspase-Glo 3/7 luminescence, 3 h; percent of clofoctol response, vehicle zero; caspase activation, % (no concentration beside the values); 330,000 tested, 0.066% active; AID 2462, 2010;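 active = over half of replicate activation scores above 10%, or exactly half above 10 with the replicate mean above 10; inconclusive = replicate mean below 10 yet half the replicates above 10; inactive = over half of replicates below 10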;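 note: wells of about 30 µL received 50 nL stock; many hits fall short of the cut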
Ecoli rRNA inh OD600: second read-out of Ecoli rRNA inh, no call of its own (marks repeat the call); OD600 change, %; measured here: OD600 growth;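 optical density of the mix in the first replicate; 0 = DMSO median and -100 = no signal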
Ecoli rRNA inh RFP: recorded beside Ecoli rRNA inh, whose call it bears; RFP signal change, %; measured here: RFP humanized mutant strains;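 first replicate; 0 = DMSO median and -100 = no signal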
The depositor's hits bear a star; ? = inconclusive; · = not tested or not shown. The list is partial; rates above refer to the full screens.

Start of the listing, in advance (eleven entries):
SMILES	Beta2AR agonist	Beta cell apopt	Calb FLC	T cruzi repl	ALR inh	Ecoli rRNA inh	Ecoli rRNA inh OD600	Ecoli rRNA inh RFP	LANA-H2B inh	A1 inh
CCC(C)N(C(=O)COc1ccccc1C(=O)NCc1ccccc1)C1CCS(=O)(=O)C1 (stereo not drawn)	-1	2	-4	7	-1	3	-5	-2.4	-9.9	0.7
COc1cc2c(cc1OC)C(c1ccccc1F)NCC2 (stereo not drawn)	-6	-2	7	29	-7	5	8	-1.9	1.8	0.1
Cc1nnc(SCC(=O)N2CCC(C(N)=O)CC2)s1	6	-5	-3	-1	-1	·	·	·	-1.1	1.0
CCc1ccc2nc(N(CCCN(C)C)C(=O)c3ccc(S(=O)(=O)N4CCc5ccccc5C4)cc3)sc2c1	35	30	-1	38	-12	-25*	-0.5*	-5.9*	3.7	24*
Cc1nnn(C23CC4CC(CC(C(=O)NN)(C4)C2)C3)n1	1	-1	3	-6	-9	·	·	·	-6.2	-0.4
CCc1ccc(Nc2nnc(SCC(=O)Nc3cccnc3Cl)s2)cc1	-6	-2	0	-11	0	-30	-50	1.5	2.8	-1.3
O=C(O)C/C(=C\c1ccc2c(c1)OCO2)c1nc2ccccc2s1	6	-7	49	9	·	-11	-13	-1.4	-2.2	0.5
N#Cc1nc(-c2ccc(F)cc2)oc1NCCCn1ccnc1	·	2	-11	30	8	·	·	·	-1.2	-0.4
COc1ccc(CC(=O)Nc2ccc(C)cc2O)cc1S(=O)(=O)N1CCOCC1	9	3	8	-7	-6	10	10	1.8	-2.9	-0.4
CSc1ccc(C(c2c(C)[nH][nH]c2=O)c2c(C)[nH][nH]c2=O)cc1	-1	-13	-3	-7	-46	1	14	-1.4	2.4	?
NC(=O)N(CCC(=O)O)c1ccccc1	16	-3	-4	-2	·	·	·	·	3.0	0.6

The listing (from the top)
SMILES	Beta2AR agonist	Beta cell apopt	Calb FLC	T cruzi repl	ALR inh	Ecoli rRNA inh	Ecoli rRNA inh OD600	Ecoli rRNA inh RFP	LANA-H2B inh	A1 inh
CCC(C)N(C(=O)COc1ccccc1C(=O)NCc1ccccc1)C1CCS(=O)(=O)C1 (stereo not drawn)	-1	2	-4	7	-1	3	-5	-2.4	-9.9	0.7
COc1cc2c(cc1OC)C(c1ccccc1F)NCC2 (stereo not drawn)	-6	-2	7	29	-7	5	8	-1.9	1.8	0.1
Cc1nnc(SCC(=O)N2CCC(C(N)=O)CC2)s1	6	-5	-3	-1	-1	·	·	·	-1.1	1.0
CCc1ccc2nc(N(CCCN(C)C)C(=O)c3ccc(S(=O)(=O)N4CCc5ccccc5C4)cc3)sc2c1	35	30	-1	38	-12	-25*	-0.5*	-5.9*	3.7	24*
Cc1nnn(C23CC4CC(CC(C(=O)NN)(C4)C2)C3)n1	1	-1	3	-6	-9	·	·	·	-6.2	-0.4
CCc1ccc(Nc2nnc(SCC(=O)Nc3cccnc3Cl)s2)cc1	-6	-2	0	-11	0	-30	-50	1.5	2.8	-1.3
O=C(O)C/C(=C\c1ccc2c(c1)OCO2)c1nc2ccccc2s1	6	-7	49	9	·	-11	-13	-1.4	-2.2	0.5
N#Cc1nc(-c2ccc(F)cc2)oc1NCCCn1ccnc1	·	2	-11	30	8	·	·	·	-1.2	-0.4
COc1ccc(CC(=O)Nc2ccc(C)cc2O)cc1S(=O)(=O)N1CCOCC1	9	3	8	-7	-6	10	10	1.8	-2.9	-0.4
CSc1ccc(C(c2c(C)[nH][nH]c2=O)c2c(C)[nH][nH]c2=O)cc1	-1	-13	-3	-7	-46	1	14	-1.4	2.4	?
NC(=O)N(CCC(=O)O)c1ccccc1	16	-3	-4	-2	·	·	·	·	3.0	0.6
COc1cccc(-c2nn(-c3ccccc3)cc2CN2CCCO2)c1	-23	-2	-2	4	4	-2	-9	-0.8	-3.7	0.2
Cc1ccccc1-c1cccc([C@@H]2C[C@H]3CN(Cc4cccnc4)C(=O)[C@]34CCCN24)c1	-7	1	-35	47	-9	-24	-32	0.4	2.2	-0.5
COc1ccc2oc(C)c(C(=O)c3ccc(C)cc3)c2c1	-5	-3	-15	9	-22	-18	-22	2.3	-1.3	-0.1
COCCn1c(C)cc(C(=O)CN2c3cccc4cccc(c34)S2(=O)=O)c1C	2	-7	·	·	-29	-6	-6	1.3	5.8	-1.7
CN(C)Cc1c(-c2ccc(Cl)cc2)nc2ccc(Cl)cn12	-4	9	31	17	-2	7	5	-1.1	-1.4	-0.5
CCC1(c2ccccc2)NC(=O)N(CC(=O)N(CC(=O)Nc2ccccc2C(F)(F)F)Cc2ccco2)C1=O (stereo not drawn)	0	·	0	-13	·	2	11	-0.1	3.4	0.1
CC(=O)N1CCc2cc(Br)cc(S(=O)(=O)NCCCN(C)Cc3ccccc3)c21	-3	·	0	6	1	8	1	-0.5	-4.7	-0.2
CC(=O)Nc1cccc(C(=O)NCCc2ccco2)c1	0	-1	-2	3	-12	-2	-12	4.2	3.0	-0.1
CCOc1ccc(N(CC(=O)NC2CCCCCC2)S(=O)(=O)c2c(C)noc2C)cc1	-10	3	-2	20	-128	6	6	-0.6	0.0	0.4
COc1cccc(CN2CCN(C(=O)c3cc(-c4ccncc4)nc4ccc(C)cc34)CC2)c1	10	4	14	47	·	-34	-35	-3.1	-2.3	0.6
CCOc1ccc(N/C(=N/c2nc(C)cc(C)n2)NC(C)=O)cc1	7	-5	-3	-4	-16	-4	0	-1.8	6.4	-0.9
Cc1csc(SCC(=O)Nc2sccc2C(N)=O)n1	-2	-1	4	2	95*	-11	-21	-2.2	0.4	-4.4
CCN(CC)S(=O)(=O)c1cc(NC(=O)CN2C(=O)NC(C)(c3ccccc3)C2=O)ccc1C (stereo not drawn)	-6	-4	7	-3	-1	-2	-3	5.0	2.8	-0.2
COc1ccc(CNC(=O)CN(Cc2ccccc2F)C(=O)c2csnn2)cc1	1	-1	2	22	-11	·	·	·	-0.8	0.0
SMILES	Beta2AR agonist	Beta cell apopt	Calb FLC	T cruzi repl	ALR inh	Ecoli rRNA inh	Ecoli rRNA inh OD600	Ecoli rRNA inh RFP	LANA-H2B inh	A1 inh
CCc1ccc(C(=O)/C=C/c2ccc([N+](=O)[O-])o2)cc1	-40	-2	-7	26	10	·	·	·	-2.5	0.1
CNC(=O)c1ccccc1Nc1ccc(SC(F)F)cc1	-14	2	-10	17	?	-37	-47	2.7	-10	1.5
CCOCCCN(C)C1CCN(C(=O)c2oc3ccccc3c2NC(=O)c2cccc([N+](=O)[O-])c2)CC1	1	-1	-1	0	-7	-6	10	5.4	5.7	0.2
COCC(=O)NC1CCCCCC1	-3	0	-28	-1	-1	-7	2	-1.7	-3.3	1.3
COc1cc(S(=O)(=O)NC2CC(C)(C)NC(C)(C)C2)c(OC)cc1Cl	-4	-3	1	2	-3	14	17	2.5	2.9	2.9
COC(=O)C(CCSC)NC(=O)c1cccc([N+](=O)[O-])c1 (stereo not drawn)	8	-4	-7	-4	-17	·	·	·	-1.1	-0.3
CCc1ccccc1N1C(=O)c2ccccc2S1(=O)=O	3	-6	-3	-5	-8	·	·	·	0.9	0.5
O=C(CSc1nc2ccccc2c(=O)[nH]1)Nc1ccccc1O	-1	6	3	-2	-4	-7	-14	-1.9	-2.9	-0.4
COc1cccc(/C=N/n2cncn2)c1OCC#N	0	-14	1	-4	-8	·	·	·	0.5	0.5
COc1ccc(C(C)=O)cc1Cn1c(=O)cc(C)[nH]c1=O	2	2	17	-20	·	2	10	1.2	3.7	-0.1
CCOc1cc(C(=O)N2CCN(c3ccc(C(C)=O)cc3)CC2)cc(OCC)c1OCC	-2	-2	-8	5	-11	-7	-6	-6.6	0.7	0.4
CCOC(=O)N1CCN(C(=O)COc2cccc3c2CCN(CC)C3=O)CC1	-1	-2	-13	-11	·	10	9	2.7	·	2.7
COc1ccccc1-n1c(SCC(=O)N2CCCC2)nnc1-c1ccccc1	-3	-1	0	0	3	1	-5	-4.8	-10	0.9
CC(OC(=O)CN1C(=O)NC2(CCCC2)C1=O)C(=O)c1ccccc1 (stereo not drawn)	4	-2	-6	-6	3	8	12	-0.7	2.1	2.3
CC(C)[C@H](NC(=O)NC1CCCC1)C(=O)O	3	-5	10	-8	-3	·	·	·	-0.7	0.6
CC(C)Oc1ccc(C(=O)Nc2ccccc2N2CCCC2)cc1	-1	-2	-3	20	98*	·	·	·	-5.4	0.4
CCC(CC)C(=O)Nc1ccc([N+](=O)[O-])cn1	6	·	-4	-10	-11	10	5	-1.9	-0.4	-0.7
CCCCn1c(N)c(N(Cc2ccccc2OC)C(=O)COc2ccccc2C#N)c(=O)[nH]c1=O	2	1	?	-13	-3	7	6	0.1	-0.1	0.0
O=C(CS(=O)(=O)c1ccc(F)cc1)N1CCN(c2ccccc2)CC1	3	·	6	4	36	-3	-1	-1.6	3.5	0.3
O=C(COc1ccccc1[N+](=O)[O-])N(Cc1cccc(Br)c1)C1CCS(=O)(=O)C1 (stereo not drawn)	-6	-4	5	23	-15	-2	-1	0.5	3.1	0.6
COc1cccc(NC(=O)c2cccnn2)c1	-2	-3	0	-13	-9	4	9	-1.2	-3.0	-1.6
COc1ccccc1CC(=O)N(Cc1ccccc1)c1ccc(C)cc1	-3	0	17	41	4	-48	-71	-14	22*	0.0
O=C(NCc1nc(-c2ccc(Cl)cc2)no1)c1ccc2c(c1)OCO2	-3	·	-24	-2	-11	3	12	-2.3	4.1	0.3
COc1cccc(CN(C)C(=O)c2ccc(NC(=O)CC3SC(N4CCCC4)=NC3=O)cc2)c1OC (stereo not drawn)	0	3	8	6	0	-4	4	-0.7	-2.8	-0.3
CC(Oc1ccccc1)C(=O)N/N=C/c1ccccn1 (stereo not drawn)	-7	-1	-10	-3	-13	·	·	·	2.5	1.0
COCCOc1ccc(C(F)(F)F)cc1Nc1nc2ccccc2o1	4	4	-3	-7	-13	·	·	·	4.0	0.3
Cc1ccc(/C=N/NC(=O)c2nnn(-c3nonc3N)c2C)o1	4	-1	38	·	-7	11	5	0.4	2.8	-0.8
Cc1cc(C)cc(NC(=O)CC2Oc3ccc(C)cc3NC2=O)c1 (stereo not drawn)	-5	3	-4	10	9	4	5	-2.5	-2.3	0.3
CSc1ccccc1NS(=O)(=O)c1ccc2c(c1)OCCO2	-7	-7	-61	-12	21	-25	-33	-7.0	-1.8	-6.9
